Assay outcomes (PubChem BioAssay)
HSD17B inhib = HSD17B dehydrogenase inhibition; Q99714; recombinant HSD17B10, NADH fluorescence kinetic; many of its hits are not listed in these tables; Potency, µM (top dose mostly 57.1 µM), without a hit: at the highest dose activity change, negative = inhibition, usual class: inhibitors; hit rate 7.6% among 75,000; AID 893; active = well fitted inhibition curve with a large enough effect; inconclusive = small, poorly fitted or top-dose-only effect; inactive = no such curve, though single readings can be large or run the other way;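 note: the protocol describes HADH2 (HSD17B10) and not the HSD17B4 of the title; nearly all actives have a fitted effect of over 70% in size; most hits overshoot -100% by far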
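Activity followed as NADH fluorescence increase (ex 360, em 450 nm) every 30 seconds for 4 min, using final 90 uM beta-hydroxybutyryl CoA and 1 mM NAD+. Recombinant His-tagged enzyme, 20 nM, pH 9.0 Tris buffer, 15 min compound preincubation.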
Numbers without * were called inactive; ? = inconclusive; [ ] = dose if it differs, or a comment. % is set by controls: 0 for no effect and ±100 for the full control effect; potency is the fitted concentration of half-maximal effect. Only part of the results is shown; the hit share may differ from the screen's.

SMILES | HSD17B inhib
COc1ccc(S(=O)(=O)N2CCN(C(=O)c3cccc(Cl)c3)CC2)cc1 | 0%
N=C(N)SCCCN | 4%[11.4 µM]
CCOc1c(OC)cccc1C1CC(=O)Nc2cc(OC)c(OC)cc21 (stereo unspecified) | 8%
N#Cc1cccc(-c2nc(NCc3cccnc3)c3ccccc3n2)c1 | ?
CN=c1sc(C(=O)Nc2cccc(Cl)c2)cc(=O)n1C | 5%
COc1cc2ccccc2cc1C(=O)Nc1ccc(S(=O)(=O)Nc2cc(C)on2)cc1 | -15%
O=C(Nc1cccc(C(=O)N2CCCCCC2)c1)c1ccco1 | 2%
Cc1nn(Cc2ccccc2Cl)c(C)c1C(=O)N1CCN(c2ccccc2)CC1 | 0%
c1ccc2ncc(-n3cnnn3)cc2c1 | 7%
Cc1cc(C)nc(SCC(=O)NCc2ccco2)n1 | -2%
COc1ccc2c(c1)c(CC(=O)N1CCOCC1)c(C)n2C(=O)c1ccc(Cl)cc1 | 6%
COc1nc(-c2ccccc2)ccc1-c1noc(-c2ccccc2F)n1 | -28%
CCSc1nnc(-c2ccc(S(=O)(=O)N3CCOCC3)cc2)n1CC1CCCO1 (stereo unspecified) | 32µM*
CCOC(=O)Nc1ccc(NC(=O)c2c(OC)cccc2OC)cc1 | -7%
COC(=O)C1C(=O)c2c([nH]c(C(=O)OCCSC)c2C)CC1C (stereo unspecified) | 1%
C=CCOc1cccc(C2/C(=C(/O)c3ccccc3)C(=O)C(=O)N2CCN2CCOCC2)c1 (stereo unspecified) | 2%
C=CCc1cccc(/C=N/c2ncccc2O)c1O | -18%
O=C(c1ccco1)N1CCN(S(=O)(=O)c2ccc(F)cc2)CC1 | -4%
CCOc1ccc(-n2c(SCC(=O)NCc3ccco3)nc3c(c2=O)SCC3)cc1 | -4%
Cc1sc2ncnc(SCc3ccco3)c2c1C | -19%
C1=Nc2c(NCc3ccccc3)ncnc2Oc2ccccc21 | 0%
N#Cc1cnn(-c2nc(SCc3ccccc3)nc3sc4c(c23)CCCC4)c1N | ?
COC(=O)C1CCN(c2nc3ccccc3nc2C(C#N)C(=O)OCC(C)C)CC1 (stereo unspecified) | 11%
CCn1c(SCC(=O)Nc2cc(OC)c(OC)c(OC)c2)nnc1-c1cccs1 | -3%
COCCNC(=O)CN(Cc1ccc2c(c1)OCO2)C(=O)CCC(=O)Nc1nccs1 | 13%

3 records drawn at random from the list so far, as already listed:
SMILES | HSD17B inhib
Cc1sc2ncnc(SCc3ccco3)c2c1C | -19%
Cc1nn(Cc2ccccc2Cl)c(C)c1C(=O)N1CCN(c2ccccc2)CC1 | 0%
N=C(N)SCCCN | 4%[11.4 µM]

Returning to the listing with the 4 entries that preceded the break.
SMILES | HSD17B inhib
N#Cc1cnn(-c2nc(SCc3ccccc3)nc3sc4c(c23)CCCC4)c1N | ?
COC(=O)C1CCN(c2nc3ccccc3nc2C(C#N)C(=O)OCC(C)C)CC1 (stereo unspecified) | 11%
CCn1c(SCC(=O)Nc2cc(OC)c(OC)c(OC)c2)nnc1-c1cccs1 | -3%
COCCNC(=O)CN(Cc1ccc2c(c1)OCO2)C(=O)CCC(=O)Nc1nccs1 | 13%
O=C(NCc1cccs1)c1ccc2c(c1)OCCO2 | 5%
CCC(C(=O)OC)n1cnc2c(nnn2-c2ccc(OC)cc2)c1=O (stereo unspecified) | -13%
c1ccc2oc(NC3=NCN(CC4CCCO4)CN3)nc2c1 (stereo unspecified) | 0%
CCOC(=O)c1cc(-c2ccc(F)cc2)n(CC(=O)N2CCCC2)c1C | 11%
CNc1oc(Cc2ccccc2)nc1S(=O)(=O)c1ccccc1 | -12%
CC(C)CNC(=O)O | -5%[11.4 µM]
COCC(=O)Nc1ccccc1C(=O)NC(C)C | 4%
COC(=O)C1=C(N)Oc2cc(C)oc(=O)c2C1c1cccnc1 (stereo unspecified) | -12%
O=C1CC(N2CCN(c3cccc(C(F)(F)F)c3)CC2)C(=O)N1c1ccccc1F (stereo unspecified) | -3%
CCCS(=O)(=O)N1CCN(S(=O)(=O)c2ccc(F)cc2)CC1 | 7%
C=C(C)c1cccc(C(C)(C)NC(=O)Nc2ccc3[nH]c(=O)[nH]c3c2)c1 | 1%
CCCCCCc1nc2ccccc2c(=O)n1N | 1%
Cc1ccc(-n2c(=O)[nH]cc(C(=O)N3CCc4ccccc43)c2=O)cc1 | -1%
C=C1CCC(OC(C)=O)/C(C)=C/CC2[C@H]1CC2(C)C (stereo partly specified) | -10%
Cc1nc(=O)c(-c2ccccc2)c(C)n1-c1ccccc1O | 10%
Nc1nc2n(n1)C(c1ccco1)CC(c1ccc(Cl)cc1Cl)N2 (stereo unspecified) | -5%
CC1=Nn2c(nnc2-c2ccccc2F)SC1 | 2%
COc1ccc(-n2nnc3c(SCC(=O)NCC4CCCO4)ncnc32)cc1 (stereo unspecified) | 8%
CC(C)OP(C)(=O)CN1CCN(CP(C)(=O)OC(C)C)CC1 (stereo unspecified) | 1%
CC(C)c1ccc2c(c1)CC[C@H]1[C@@](C)(CN)CCC[C@@]21C | 8%[11.4 µM]
O=C(OCc1ccc(F)cc1Cl)c1ccccn1 | 35%[activator]
Cc1ccc(F)cc1NC(=O)c1c(-c2ccccc2)noc1C | 5%
O=C(Nc1cccnc1)c1noc2c1CCCCC2 | 8%
COc1ccccc1NC(=O)CSc1nnc(Cn2nnc(-c3ccccc3)n2)n1-c1ccccc1 | 1%
CCOc1cc(N2CCOCC2)c(OCC)cc1NC(=O)COC(=O)c1cc(C)oc1C | -7%
Next part.
SMILES | HSD17B inhib
CC(C(=O)NC1=NCCS1)N1C(=O)c2ccccc2C1=O (stereo unspecified) | -2%
CCCCCCCCCCCCCCCC(=O)O[C@H](CC(=O)O)C[N+](C)(C)C | ?
CCCN(CCC)C(C(=O)Nc1cccc(OC)c1)c1ccccc1 (stereo unspecified) | -9%
COc1cc(C(=O)Nc2nc(N)n(-c3ccccc3)n2)cc(OC)c1OC | 4%
CCCC1C(c2ccccc2)C(C#N)(C#N)C2(C#N)CC1(N)NC2=O (stereo unspecified) | -4%
COc1cc2c(cc1NC(C)=O)CCCC2 | 0%
Clc1ccc(NCc2nncn2-c2ccccc2)cc1 | -1%
CCOCCCNC(=O)c1ccc(OC(C)=O)cc1 | 11%
CCOc1ccc(-c2nnn(CC(=O)c3ccc4c(c3)OCCO4)n2)cc1 | 3%
CCOC(=O)[C@]1(C(NC(=O)OC)c2cccc(F)c2)CCCC1=O (stereo partly specified) | 4%[11.4 µM]
O=C(Nc1nc2ccccc2n1CCOc1ccc(Cl)cc1)c1ccco1 | ?
CC1CCN(c2nc3ccccc3nc2C(C#N)C(=O)OC2CCCCC2)CC1 (stereo unspecified) | 7%
O=C(CSc1nnc2scc(-c3ccccc3)n12)NCc1ccc2c(c1)OCO2 | 2%
CC1=CC2=C(OC1N(C)C)c1cccc3cccc(c13)C2=O (stereo unspecified) | ?
Fc1ccccc1Cn1nnc2c(-n3ccnc3)ncnc21 | -5%
Cc1cc(Cl)ccc1OCC(=O)NCCC(=O)O | 1%
COC(=O)c1ccc(NC(=O)CN(c2ccc(OC)cc2)S(C)(=O)=O)cc1 | -3%
O=C(CN1CCOCC1)Nc1ccc(-c2nc3ccccc3[nH]2)cc1 | 25µM*
O=C(NCc1ccccn1)C(C(=O)c1ccc(F)cc1)n1ccccc1=O (stereo unspecified) | 6%
CCOC(=O)Cc1csc(NC(=O)CCc2ccc(S(=O)(=O)N3CCOCC3)cc2)n1 | 11%
COc1ccc(N2CCN(c3oc(COc4ccccc4Cl)nc3C#N)CC2)cc1 | 10%
Cn1c(=O)c2[nH]c(CCS)nc2n(C)c1=O | 8%[11.4 µM]
CCOC(=O)c1[nH]c(C)c(C(=O)Nc2ccc3c(c2)OCCO3)c1C | 5%
Cc1ccc(-n2c(C)nc3c(cnn3-c3ccc(F)cc3)c2=O)cc1 | -4%
CCOC(=O)N1CCC(N(CCOC)C(=O)Nc2ccc(CC)cc2)CC1 | -5%

6 of these compounds, set out differently:
SMILES	HSD17B inhib
O=C(OCc1ccc(F)cc1Cl)c1ccccn1	35%[activator]
Cc1nn(Cc2ccccc2Cl)c(C)c1C(=O)N1CCN(c2ccccc2)CC1	0%
CC(C)CNC(=O)O	-5%[11.4 µM]
N#Cc1cnn(-c2nc(SCc3ccccc3)nc3sc4c(c23)CCCC4)c1N	?
CCOCCCNC(=O)c1ccc(OC(C)=O)cc1	11%
COC(=O)C1=C(N)Oc2cc(C)oc(=O)c2C1c1cccnc1 (stereo unspecified)	-12%

In another format: entries from further up.
> CC1CCN(c2nc3ccccc3nc2C(C#N)C(=O)OC2CCCCC2)CC1 (stereo unspecified)
  HSD17B inhib = 7%

> O=C(CSc1nnc2scc(-c3ccccc3)n12)NCc1ccc2c(c1)OCO2
  HSD17B inhib = 2%

> CC1=CC2=C(OC1N(C)C)c1cccc3cccc(c13)C2=O (stereo unspecified)
  HSD17B inhib = ?

> Fc1ccccc1Cn1nnc2c(-n3ccnc3)ncnc21
  HSD17B inhib = -5%

More results follow.
SMILES | HSD17B inhib
COC(=O)c1ccccc1NC(=O)c1noc2c1CCCC2 | 37%[activator]
COCCCn1cnc2c(c1=O)c1nc3ccccc3nc1n2-c1ccccc1 | 10µM*
CCCCOc1ccc(/C(O)=C2/C(=O)C(=O)N(CCCOC)C2c2ccncc2)cc1C (stereo unspecified) | -4%
Cc1ccnc(SCC(=O)Nc2sc3c(c2C#N)CCCC3)n1 | 0%
CCCCn1c(SCC(N)=O)nnc1-c1ccco1 | 11%
COc1ccc(-c2nc(C#N)c(N3CCN(c4cccc(Cl)c4)CC3)o2)cc1OC | 5%
CC1(C)N=C(c2ccc(Cl)cc2Cl)C(=O)N1 | 9%
CC(=O)NC(c1ccco1)c1ccc2cccnc2c1O (stereo unspecified) | 0%
Cc1nc2c(oc3ccccc32)c(=O)o1 | -5%
O=C(Nc1nc2ccccc2[nH]1)c1ccc(F)cc1 | ?
COc1ccc(NC(=O)CN2CCN(S(=O)(=O)c3ccc(F)cc3)CC2)cc1Cl | 10%
COc1cccc(/C(O)=C2/C(=O)C(=O)N(Cc3ccco3)C2c2ccncc2)c1 (stereo unspecified) | 2%
CCCS(=O)(=O)N1CCn2c(nc3ccccc32)C1 | 7%
CCn1c(SCC(=O)Nc2cc(NC(C)=O)ccc2OC)nnc1-c1cccnc1 | -1%
NC(CSS(=O)(=O)O)=N[C@@H]1C[C@H]2CC[C@@H]1C2 | -5%[11.4 µM]
CN(C)Cc1ccccc1-c1nc(N(C)Cc2ccco2)c2ccccc2n1 | -12%
Cc1ccc(C(=O)Cn2c(C)cc(C)c(C#N)c2=O)cc1 | ?
Cc1c(C(=O)OC2CCCC2)[nH]c2c1C(=O)CC(c1ccco1)C2 (stereo unspecified) | -13%
C=CCNC(=O)COc1ccc(S(=O)(=O)NC2CCCCC2)cc1 | 4%
CN=c1nc(-c2ccccc2)n(-c2ccccc2)s1 | 6.3µM*
COc1cc(Nc2cc(C)nc3ncnn23)cc(OC)c1OC | 3%
[O-]/[N+](=C\c1ccncc1)c1ccc(Br)cc1 | ?
O=C(CN1CCCCC1)Nc1ccc(S(=O)(=O)N2CCCCCC2)cc1 | 0%
CCOC(=O)CNS(=O)(=O)c1c(C)noc1C | 2%
Cc1c(NC(=O)c2ccc(Cl)c(S(=O)(=O)N3CCOCC3)c2)c(=O)n(-c2ccccc2)n1C | 8%
Remaining list, next part.
SMILES | HSD17B inhib
CCCCC(=O)Nc1ccccc1C#N | 11%
O=C(O)CC1(CC(=O)O)Nc2ccccc2SC1=O | 5%[11.4 µM]
CCOC(=O)Cn1c(=O)oc2cc(S(=O)(=O)N(CCN(C)C)Cc3ccccc3)ccc21 | 1%
COc1cc2nc(SCc3c(C)noc3C)n(CCC3=CCCCC3)c(=O)c2cc1OC | 8%
CN(C)Cc1ccccc1-c1nccc(N(C)C)n1 | 4%
CCOC(=O)CN1C(=O)c2ccccc2C1=O | 9%
COc1ccc(NC(=O)N2CCCCC2)cc1 | 4%
CCCC(OC(=O)CC1Sc2ccccc2NC1=O)C(=O)NCc1ccco1 (stereo unspecified) | 13%
CCC(C)[C@H](NC(=O)NCc1ccc(Cl)cc1)C(=O)OC (stereo partly specified) | -2%
CN1C[C@@H]2C(c3ccccc3)C3(c4ccc(C#N)cc4)CC2(C3)[C@H]1c1ccccc1 (stereo partly specified) | -2%
CC(C(=O)Nc1ccc2c(c1)OCO2)N(c1ccc(Cl)cc1)S(C)(=O)=O (stereo unspecified) | 3%
CC(C)OC(=O)c1ccc(OC(=O)c2cccnc2)cc1 | 4%
COc1ccccc1N1CCN(C(=O)CCc2ccc(S(=O)(=O)NC(C)C)cc2)CC1 | ?
CCc1c(C)nc2cc(-c3cc(OC)cc(OC)c3)nn2c1N1CCCC1 | ?
CS(=O)(=O)N1CCC2(CC1)CN(c1ccccn1)C2 | 32µM*
Cc1cnc(NC(=O)CSc2nnc(COc3c(C)cccc3C)o2)s1 | 3%
O=C(Nc1ccc2c(c1)OCCO2)c1cccnc1 | 0%
O=C(c1csnn1)N1CCC2(CCCN(c3ncccn3)C2)CC1 | ?
COc1ccccc1N1CCN(C(=O)c2cc3c(-c4ccc(Cl)cc4)nn(C)c3s2)CC1 | -7%
Cn1c(=O)oc2cc(S(=O)(=O)N3CCCC(C(=O)NCc4ccc5c(c4)OCO5)C3)ccc21 (stereo unspecified) | 9%
COCCn1nnnc1SCC(=O)c1ccccc1 | -1%
COc1ccccc1CNc1nc(-c2ccc(C(=O)N(C)C)cc2)nc2ccccc12 | ?
Nc1nc(C(=O)N2CCOCC2)nn1S(=O)(=O)c1ccccc1 | 3%
